NPYLR7 ag: mosquito NPYLR7 agonism | 0.15% of 270,000 active | HEK293T NPYLR7/Galpha15, GCaMP6s calcium fluorescence | activation, % at 10 µM; in the data active = activation above about 40%;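 also: 0% = vehicle and 100% = reference agonist at the receptor; some compounds past the cut are filed as inactive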
NPYLR7 ag max-min: second read-out of NPYLR7 ag, no call of its own (marks repeat the call); activation, %; measured here: Max-Min RFU normalised activation; some inactives read as strong as hits;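 span of the calcium signal over five minutes; 0% = vehicle and 100% = native peptide agonist; compound fluorescence can raise it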
* marks the source's active call; other numbers are inactive results; & = joins results of further samples. A portion of the library; count on the stated rates, not on these rows.

SMILES	NPYLR7 ag	NPYLR7 ag max-min
COc1ccc(S(=O)(=O)N2CCN(C(=O)CCCNC(N)=O)CC2)cc1OC	9	8
CC(C)c1cc(CNC(=O)C2CCC(=O)N(CCc3ccc(Cl)cc3)C2)on1 (stereo not drawn)	-4	-10
Nc1ccc(C(=O)N2N=C(c3ccncc3)CC2(O)C(F)(F)F)cc1 (stereo not drawn)	-3	-2
CCc1nncn1CCNc1ccc2cccc(Br)c2n1	2	0
CC(c1cccc(-c2nccc3ccccc23)c1)N(C)C (stereo not drawn)	-3	-5
Clc1ccc(Cl)c(Nc2nc3cc(Cl)ccc3o2)c1	10	7
N#Cc1ncn(CC(=O)Nc2ccc(OC(F)F)c(Cl)c2)n1	3	1
COc1ccc(S(=O)(=O)Oc2cc(CNCCN(C)C)ccc2OC)cc1	-4	-5
CCOC(=O)c1cnc(NCCN2CCOCC2)[nH]c1=O	1	0
Cc1ccc(N2C(N)=NC(N)=NC2(C)C)c(C)c1	14	9
COCCNC(=O)CSc1nc2c([nH]c3ccccc32)c(=O)n1-c1ccccc1F	1	1
O=C(NC1CC1)C(C1CCCC1)N1CCN(C(=O)CCc2ccccc2)CC1 (stereo not drawn)	-8	-6
Cc1cc(C(=O)Cn2cc([N+](=O)[O-])ccc2=O)c(C)n1CCC1=CCCCC1	21	13
O=C(Cn1nc(-c2ccccc2)c2sc(N3CCOCC3)nc2c1=O)Nc1ccccc1F	-2	-7
CNS(=O)(=O)c1cc(C(=O)Nc2ccc(N3CCCC3)nc2)ccc1OC	-13	-13

Whole records, quoted from the list. Values in the order: NPYLR7 ag	NPYLR7 ag max-min
Entry for O=C(NC1CC1)C(C1CCCC1)N1CCN(C(=O)CCc2ccccc2)CC1 (stereo not drawn) → -8	-6
Entry for CC(C)c1cc(CNC(=O)C2CCC(=O)N(CCc3ccc(Cl)cc3)C2)on1 (stereo not drawn) → -4	-10
Entry for Nc1ccc(C(=O)N2N=C(c3ccncc3)CC2(O)C(F)(F)F)cc1 (stereo not drawn) → -3	-2
Entry for O=C(Cn1nc(-c2ccccc2)c2sc(N3CCOCC3)nc2c1=O)Nc1ccccc1F → -2	-7

Following part:
SMILES	NPYLR7 ag	NPYLR7 ag max-min
COc1cccc(CNC(=O)c2ccccc2N2CCCCC2)c1	-18	-20
CCNc1nc(Cl)nc(Oc2ccc(=O)n(C)n2)n1	4	2
Fc1ccc(-c2noc(CSc3nnc(-c4ccccc4F)n3C3CC3)n2)cc1	-1	0
CC(C)[C@H]1CC[C@H](C)C[C@@H]1OCC(=O)N1CCN(C(=O)c2ccco2)CC1	-13	-16
CCCc1cc(C(=O)Nc2ccc(S(=O)(=O)C(F)F)cc2)sc1C	8	2
COc1ccc(Cc2nc3ccc(OC(C)=O)cc3c(=O)o2)cc1	-6	-13
Cc1cc(C)c2nccc(-c3ccncc3)c2c1	27	12
CN(C)C(=O)C(C)(C)NCc1ccc(I)cc1	7	7
COC(=O)c1cc2c(nc1NC(=O)c1occc1C)CCCC2	2	2
CCn1ncnc1-c1c(-c2ccccc2)ncn1CCCSC	-2	-5
C=CCn1cc(CN2CCC(C(=O)Nc3ccc(Oc4cccnc4)cc3)CC2)c(C)n1	-7	-8
C#CCOCC(O)CN(CCC(C)C)Cc1ccc(OC)cc1 (stereo not drawn)	26	26
CCOCCn1cc(C2CCN(C(=O)Cc3ccc(OC)cc3)CC2)c2ccccc21	-5	-4
CCc1nnc(N=Cc2nc(-c3cccc(OC)c3)oc2O)s1	6	5
COc1ccccc1-c1cnn2c(C)c(C(=O)NCc3ccccc3Cl)cnc12	17	5

Laid out differently: entries from further up.
CCc1nnc(N=Cc2nc(-c3cccc(OC)c3)oc2O)s1
  NPYLR7 ag = 6
  NPYLR7 ag max-min = 5
Cc1ccc(N2C(N)=NC(N)=NC2(C)C)c(C)c1
  NPYLR7 ag = 14
  NPYLR7 ag max-min = 9

New compounds follow.
SMILES	NPYLR7 ag	NPYLR7 ag max-min
C/C(=C/C(=O)NC1CCN(c2cc(C)ncn2)CC1)CCc1ccccc1	1	-1
Cc1cc(C(=O)N(CCCN2CCOCC2)c2nc3c(F)cc(F)cc3s2)no1	5	4
Cc1ccc2c(c1)C(=O)CC1(CCN(CC(=O)Nc3cc(C)nn3C)CC1)O2	-6	-12
COc1ccc(-c2c(-c3ccc(OCCN4CCOCC4)cc3O)n[nH]c2C)cc1	1	-3
COCCN1CCN(C(=O)CC2C(=O)NCCN2Cc2ccoc2)CC1 (stereo not drawn)	1	-6
CCC(c1ccccn1)N(C)Cc1ncccc1C(=O)O (stereo not drawn)	18	8
COCCN(Cc1csc(COc2ccc(Cl)cc2)n1)C(=O)C1CCCC1	9	16
Cn1ncc2c(NCCC(c3ccccc3)c3ccccc3)ncnc21	1	15
O=C(NC1=NCCS1)c1sc2cc(F)ccc2c1Cl	-19	-18
O=C(CCCn1nnnc1CN1CCOCC1)NCC[C@@H]1C[C@@H]2C=C[C@H]1C2	-4	-6
Cc1cc(NC(=O)c2cccc(Cl)c2)n(-c2nc3c(c(=O)[nH]2)CCC3)n1	1	-3
Cc1cn2c(/C=C/C(=O)N3CCC(C(N)=O)C3)c(C)nc2s1 (stereo not drawn)	1	13
CCOCCn1cc(C2CCN(S(=O)(=O)c3cc(C)c(Cl)cc3Cl)CC2)c2ccccc21	22	10
CCn1c(-c2cc(Cl)c3c(c2)OCO3)nc2ccccc21	1	-4
CCOC(=O)C1(Cc2ccccc2C)CCCN(Cc2cn(CC)nc2C)C1 (stereo not drawn)	-6	-10
Cc1cc(C)cc(-c2nc(-c3ccncc3)no2)c1	1	-2
COCCNC(=O)c1cccc(CSc2nc(C(C)C)cc(N(C)Cc3ccccc3)n2)c1	0	6
O=C(CC1COCCN1)NCc1cn2ccsc2n1 (stereo not drawn)	-5	-5
O=C(Nc1cccc(-c2cscn2)c1)c1ccc2nccnc2c1	12	5
CN1CCN(c2ncc3c(=O)n(CC4CCCO4)ccc3n2)CC1 (stereo not drawn)	5	5
O=S(=O)(Nc1ccc(Oc2ncccn2)cc1)c1ccccc1Br	9	5
CN1[C@H]2CC[C@@H]1CN(C(=O)c1cc(F)c(F)cc1Cl)CC2	-1	-1
O=C(NCC1CCC1)C(=O)Nc1cccc(CN2CCOC2=O)c1	7	1
Cc1nc(NC(=O)C(C)OC(=O)C2CCN(C(=O)C3CC3)CC2)sc1C (stereo not drawn)	9	2
Cc1ncoc1C(=O)N1CCCC(C(=O)Nc2ccc(-c3cscn3)cc2)C1 (stereo not drawn)	8	1
COc1cccc(-n2c(-c3ccc(Cl)cc3)cc(C(=O)NCCCN3CCOCC3)c2C)c1	11	24
CC(C)N(Cc1ccc(C#N)cc1)Cn1nc(C(C)(C)C)ccc1=O	5	2
CCc1ccc(S(=O)(=O)Nc2cc(N3CCCS3(=O)=O)ccc2OC)cc1	-3	4
N#Cc1cc(Cl)ccc1NCC1(O)CCC1	3	0
C=CCN1CCc2c(cc(O)c(O)c2Br)[C@@H](c2ccccc2)C1	7	-3
COc1c(F)cccc1C(=O)N1CCC(c2ccccc2C(=O)O)C1 (stereo not drawn)	-7	-13
CCOC(=O)c1ccc(COc2nc3ccccc3nc2-c2ccccc2NC(C)=O)o1	-3	-3
CC(=O)Nc1ccc(C(=O)N=Nc2c(O)[nH]c3ccccc23)cc1	-3	-9
O=C1/C(=C/c2cccnc2)SC(=S)N1c1cccc(F)c1	-1	2
CCCn1c(CCNC(=O)c2cccs2)nc2ccccc21	7	10
Cc1noc(C)c1CC(=O)NC1CC(=O)N(CC2CCCCC2)C1 (stereo not drawn)	4	3
COc1cc(C)ccc1OCc1cccc(C(N)=O)c1	1	-1
O=C(CN1CCCCC1CCN1CCOCC1)N1CCc2ccccc21 (stereo not drawn)	0	3
O=S(=O)(Nc1ccc(F)c(F)c1)c1cc(Cl)ccc1Cl	5	-1
Cc1cccc(Cn2cnc3c(cnn3CCNC(=O)c3ccco3)c2=O)c1	-6	-10
O=C(CSc1nnc(CNC(=O)c2ccco2)n1-c1cccc(C(F)(F)F)c1)Nc1nccs1	-9	-9
CCOC(=O)c1c(NC(=O)c2nn(C)cc2[N+](=O)[O-])sc2c1CCCC2	0	-6
O=C(OCCN1C(=O)c2cccc3c(N4CCOCC4)ccc(c23)C1=O)c1cccs1	-9	-14
O=C1Nc2ccccc2C12NN=C(Cc1nc3ccccc3s1)O2 (stereo not drawn)	-4	13
COc1ccc(C2CC(C(F)(F)F)n3ncc(C(=O)NCc4cccs4)c3N2)cc1OC (stereo not drawn)	-2	-7

By substructure: the entries above containing a thiophene ring, fused or not (6)
SMILES	NPYLR7 ag	NPYLR7 ag max-min
CCCc1cc(C(=O)Nc2ccc(S(=O)(=O)C(F)F)cc2)sc1C	8	2
O=C(NC1=NCCS1)c1sc2cc(F)ccc2c1Cl	-19	-18
CCCn1c(CCNC(=O)c2cccs2)nc2ccccc21	7	10
CCOC(=O)c1c(NC(=O)c2nn(C)cc2[N+](=O)[O-])sc2c1CCCC2	0	-6
O=C(OCCN1C(=O)c2cccc3c(N4CCOCC4)ccc(c23)C1=O)c1cccs1	-9	-14
COc1ccc(C2CC(C(F)(F)F)n3ncc(C(=O)NCc4cccs4)c3N2)cc1OC (stereo not drawn)	-2	-7

Remaining list, next part.
SMILES	NPYLR7 ag	NPYLR7 ag max-min
Cc1ccc(NC(=O)C(=O)NCCN2CCN(S(=O)(=O)c3ccc(F)cc3)CC2)cc1Cl	-8	-18
CCNC(=O)c1cc(Cl)ccc1NS(=O)(=O)c1cn[nH]c1	3	1
CC(C)c1ccc(-n2c(CCC(=O)NCCN3CCOCC3)cc3c2-c2ccccc2OC3)cc1	-1	-4
COc1ncccc1-c1ccc(OCC(N)=O)c(C)c1	23	12
CC(C)N1CN=C(Nc2nc3ccccc3o2)NC1	10	4
Cc1sc2ncnc(N/N=C\c3ccccc3O)c2c1C	6	2
CCOC(=O)Cc1cc(=O)n2[nH]c(C(F)(F)F)c(-c3ccccc3)c2n1	-3	-3
COc1cc(OC)c(Br)c(-n2c(C(C)N(CCC(C)C)C(=O)c3cccc(Br)c3)nc3ccccc3c2=O)c1 (stereo not drawn)	29	29
CC(C)P(=O)(Cc1cccc(C#N)c1)C(C)C	1	0
Fc1ccc(-c2cc(C(F)(F)F)nc(N3CCOCC3)n2)cc1	3	2
CCN(CC)S(=O)(=O)c1ccc(OC)c(N2CCN(S(=O)(=O)c3cccc(F)c3)CC2)c1	28	18
Cn1ncc(Oc2ccc3c(c2)OCO3)c(Nc2ccc(C(=O)O)cc2)c1=O	14	15
C=CCN(CC#Cc1ccccc1)C(=O)c1c(C)noc1C	7	3
COc1ccc(C2=NN(C(=O)C34CC5CC(CC(C5)C3)C4)C(c3ccccc3)C2)cc1 (stereo not drawn)	-4	-10
CCOc1c(Cl)cc(C(=O)Nc2ccccc2N2CCCC2=O)cc1OC	3	2
CCOC(=O)C1(CCCc2ccccc2)CCN(C(=O)c2ccc(OC)o2)CC1	16&-4	6&9
Cc1cc(C=Cc2ccc3cc(N(C)C)ccc3[n+]2C)c(C)n1-c1ccccc1	25	16
CC(C)CCn1c(N/N=C\c2ccc(Cl)cc2)nc2c1c(=O)[nH]c(=O)n2C	-7	-9
COC(=O)C1=C(C)NC2=C(C(=O)CCC2)C1c1cc2c(cc1Br)OCO2 (stereo not drawn)	-5	-8
O=S1(=O)NC(=NC(CO)Cc2ccccc2)c2ccccc21 (stereo not drawn)	-1	-4
Cc1cc(C)c2c(CC(=O)NCc3cccnc3-n3ccnc3)coc2c1C	2	0
Cc1ccccc1CS(=O)(=O)c1ncc(CNC2CC2)n1Cc1ccccc1	21	13
C[C@H](C(=O)NCc1ccccc1)N1Cc2ccc(-c3ccc(C#N)cc3)nc2C1=O	-3	0
c1ccc2c(c1)nc(NC1CCCCC1)c1nncn12	3	2
CCC(CC)NC(=O)CSc1nnc(C2CCS(=O)(=O)C2)n1C (stereo not drawn)	1	-2
CCN(Cc1nc2cc(Cl)ccc2c(=O)[nH]1)C(=O)c1cc(Cl)c2c(c1)OCO2	3	1
C=C(C)CN(CC)Cc1cnc(S(C)(=O)=O)n1CC(C)C	3	2
COCC(NC(=O)NC(C)c1cc(C)oc1C)c1ccc(C)o1 (stereo not drawn)	9	8
NN1C=Nc2ccc(Cl)cc2C1(O)c1ccccc1 (stereo not drawn)	-6	-8
Cc1noc(CCNC(=O)/C=C/c2cc(C)c(C)cc2C)n1	0	497
C=CCNC(=O)C(NC(=O)c1cccc(OC)c1)C1CCN(C(=O)CCc2ccccc2)CC1 (stereo not drawn)	4	6
C=CCOCC(O)CN(Cc1ccsc1)C1CC1 (stereo not drawn)	41	38
CC(NC(=O)NC1CCC(c2ccccc2)CC1)c1ccccn1 (stereo not drawn)	1	-1
O=C(CSc1nc2c(-c3ccccc3)c[nH]c2c(=O)n1C1CC1)NCc1ccccc1	2	-6
COCc1noc(CCn2cnc3sc4c(c3c2=O)CCNC4)n1	3	0
COc1ccc(/C=C2/SC(=S)N(CC(=O)Nc3ccccc3O)C2=O)cc1	5	4
COc1cc(-c2nccn2CCO)c(OC)cc1SC	-7	-6
Cc1ccc(Cl)cc1-n1c(SCc2ccc(F)cc2)nnc1C(N)Cc1ccccc1 (stereo not drawn)	-6	-4
CN1CCN(c2oc(-c3ccc(F)cc3)nc2C#N)CC1	-7	-10
CCN(CC)C(=O)CN(C)S(=O)(=O)c1nc(C)c(C)s1	0	-1
